# Assay outcomes from PubChem.
# KCNQ2 pot – potentiators of rat KCNQ2 potassium channel | CHO-K1 KCNQ2, FluxOR thallium flux fluorescence; active compounds read high | B-score at 10 µM | Potassium voltage-gated channel subfamily KQT member 2 (Rattus norvegicus), O88943 | 310,000 tested, 0.54% active;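 active = fluorescence ratio B-score at least 3 SD of library B-scores, with initial fluorescence B-score within 3 SD, cut at about 5.3 in these data; same plate scores as AID 2156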;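 note: B-score of peak minus minimum over baseline fluorescence ratio after K+ and Tl+ stimulus; positive B-score means potentiation of KCNQ2 with more thallium influx and brighter signal; only the inactives scoring about 0 or higher are listed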
# Target sequence (O88943 whole entry, looked up): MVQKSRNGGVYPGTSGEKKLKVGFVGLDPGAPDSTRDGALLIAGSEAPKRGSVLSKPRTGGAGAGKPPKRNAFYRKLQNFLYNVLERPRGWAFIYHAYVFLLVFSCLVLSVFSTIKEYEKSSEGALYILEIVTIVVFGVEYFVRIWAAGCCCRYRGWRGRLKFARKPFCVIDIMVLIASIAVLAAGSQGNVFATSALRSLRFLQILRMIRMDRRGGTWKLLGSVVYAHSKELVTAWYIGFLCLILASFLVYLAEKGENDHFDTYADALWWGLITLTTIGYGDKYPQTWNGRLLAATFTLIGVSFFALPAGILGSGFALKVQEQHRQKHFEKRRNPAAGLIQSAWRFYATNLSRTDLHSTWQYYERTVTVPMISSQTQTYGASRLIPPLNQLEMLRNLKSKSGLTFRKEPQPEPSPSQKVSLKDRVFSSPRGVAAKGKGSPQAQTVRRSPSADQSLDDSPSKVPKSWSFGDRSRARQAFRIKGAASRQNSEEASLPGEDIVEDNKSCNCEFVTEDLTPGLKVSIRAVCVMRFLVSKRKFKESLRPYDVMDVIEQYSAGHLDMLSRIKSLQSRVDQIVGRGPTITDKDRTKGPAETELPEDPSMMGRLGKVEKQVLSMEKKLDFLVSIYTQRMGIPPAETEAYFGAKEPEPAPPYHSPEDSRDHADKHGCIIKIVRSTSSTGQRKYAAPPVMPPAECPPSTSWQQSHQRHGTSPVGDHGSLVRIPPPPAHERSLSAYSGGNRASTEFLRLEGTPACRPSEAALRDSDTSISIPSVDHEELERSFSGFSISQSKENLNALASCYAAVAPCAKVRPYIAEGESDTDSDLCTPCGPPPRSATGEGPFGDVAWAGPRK
# KCNQ2 pot baseline – recorded beside KCNQ2 pot, whose call it bears; B-score; compound at 10 µM; measured here: initial fluorescence intensity artifact check;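 brightness before thallium and not channel activity; 0 = typical well and far values either way flag optical interference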
# The depositor's hits bear a star. These rows are one share of the data, so the mix of outcomes need not match the whole.
# The first three compounds (preview)
SMILES	KCNQ2 pot	KCNQ2 pot baseline
CCOCCCNC(=S)N(CCN(CC)CC)Cc1cc2cc3c(cc2[nH]c1=O)OCCO3	0.29	-1.77
CSc1ccccc1OCc1cc(C(=O)N2CCSCC2)no1	0.01	-0.81
CC(NC(=O)c1ccco1)C(=O)N1CCN(c2ccccc2)CC1 (stereo not given)	1.82	0.07

# Results, previewed entries included:
SMILES	KCNQ2 pot	KCNQ2 pot baseline
CCOCCCNC(=S)N(CCN(CC)CC)Cc1cc2cc3c(cc2[nH]c1=O)OCCO3	0.29	-1.77
CSc1ccccc1OCc1cc(C(=O)N2CCSCC2)no1	0.01	-0.81
CC(NC(=O)c1ccco1)C(=O)N1CCN(c2ccccc2)CC1 (stereo not given)	1.82	0.07
CCS(=O)(=O)N1CCN(c2cccc(C)c2C)CC1	1.14	0.31
CC1=NN(c2ccc(Cl)cc2)C(=O)C1	1.66	-0.97
O=C(Nc1ccon1)c1cc2c(s1)CCCC2	1.76	-3.19
COc1ccc(NCc2nnc(-c3ccccc3)o2)cc1	0.56	-1.13
Cc1ccc(S(=O)(=O)Nc2ccc(O)c3cccnc23)cc1	0.65	-0.73
CCCn1c(N)cc(=O)n(C)c1=O	0.59	-0.95
Cc1cccc(NC(=O)Nc2ccc(C)cc2Br)c1	2.46	-0.76
Nc1nc(SCc2ccccc2Cl)n[nH]1	2.86	0.72
Cc1cccc(NC(=S)N2CCN(c3ccccc3F)CC2)c1C	0.96	0.23
CC(C)(C)OC(=O)N1CCN(c2ccc(NC(=O)Cn3nnc(-c4ccccc4)n3)cc2)CC1	0.17	0.22
O=C(NCc1ccc(Cl)cc1)C1CCN(S(=O)(=O)c2ccc(F)cc2)CC1	0.13	1.21
COc1cccc(CNC(=O)c2nnn(CC(=O)Nc3ccc(C)c(C)c3)c2N)c1	2.19	-0.44
N#Cc1ccccc1NC(=O)Nc1cccs1	0.8	-0.68
CN(C)C(/C=C/Nc1ccc(O)cc1)=C(C#N)C#N	1.64	-3
CCn1c2ccc(/C(C)=N\O)cc2c2cc(/C(C)=N\O)ccc21	0.97	0.46
CCOCc1cnc(C)nc1NCC(=O)c1c(C)n(C)c2ccc(OC)cc12	0.8	-1.44
CN1CCN(c2oc(Cc3cccc4ccccc34)nc2C#N)CC1	0.46	-0.54
CC(C)c1cc(NCCOCCO)n2c(nc3ccccc32)c1C#N	1.49	3.42
COC(=O)/C(=C1/Oc2ccc(C)cc2S1)C(F)(F)F	2.17	-0.33
Cc1ccc(C)c(OCc2cc(C(=O)N3CCC(N4CCCC(O)C4)CC3)no2)c1 (stereo not given)	1.63	-0.84
CCN(CC(=O)NC(C)(C)C)C(=O)C(c1ccccc1)c1ccccc1	0.74	1.45
O=c1c2cccnc2[nH]c(=S)n1CCCN1CCN(c2ccc(F)cc2)CC1	0.03	0.11
CCN(CC)Cc1c(C(=O)N2CCc3ccccc3C2)nc2ccc(Cl)cn12	0.64	1.09
CN(C)C(=O)c1nc2ccccc2s1	0.75	-0.41
N#CCCN(Cc1cccnc1)C(=S)NC1CC2C=CC1C2 (stereo not given)	0.78	-2.63
CC1CCCN(c2ccc3nc4ccccc4c(=O)n3n2)C1 (stereo not given)	0.61	-3.27
Cc1ncsc1C(=O)N1CCCC(CNS(=O)(=O)c2cccs2)C1 (stereo not given)	0.31	-0.18
COc1ccc(NC(=O)CN(C)S(=O)(=O)c2ccc3c(c2)c(=O)n(C)c(=O)n3C)cc1	0.06	2.48
CCC(C)(C)NC(=S)Nc1ccc(-c2nc3ccc(C)cc3s2)cc1	1.3	-0.29
Cn1c(CNC(=O)c2ccco2)nnc1SCC(=O)c1ccc(Br)cc1	0.87	1.06
CCOC(=O)c1cnc(SCC(=O)Nc2ccc3c(c2)OCCO3)nc1N	0.22	1.33
CCOC(=O)[C@@H]1[C@H]2COc3cc(OC)ccc3[C@H]2N2C(=O)N(c3cccc(Cl)c3)C(=O)[C@]12C	2.18	0
CC(=O)OCCNc1cc(SC(C)C)c2nonc2c1[N+](=O)[O-]	0.09	-0.54
NC(=O)C[n+]1cccc(CNC(=O)c2ccc(OC(F)F)cc2)c1	0.74	1.01
COc1ccc(CCNS(=O)(=O)c2ccc3c(c2)NC(=O)C(C)S3)cc1OC (stereo not given)	0.83	-3.01
O=C(NN1C(=O)C2C(c3ccccc3)C=CC(c3ccccc3)C2C1=O)c1ccncc1 (stereo not given)	6.51*	1.31*
COC(=O)c1cccnc1-n1c(=O)c2cccnc2n(CC(=O)Nc2ccc(Br)cc2)c1=O	0.01	2.74
CCOC(=O)N1CCN(C(=O)COC(=O)COc2c(C)cc(C)cc2C)CC1	1.54	-1.34
S=C1NC2=C(CCC/C2=C\c2ccc(Cl)cc2)C(c2ccc(Cl)cc2)N1 (stereo not given)	1.03	0.05
O=C(N[C@@H](Cc1ccccc1)C(=O)O)c1ccncc1	0.84	-0.13
COc1cc(NC(=O)c2ccc(Cl)cc2)c2ncccc2c1	0.63	0.45
CC1CN(S(=O)(=O)c2ccc(F)cc2)CN1C(=O)N1CCOCC1 (stereo not given)	0.32	-0.36
O=C(Nc1ccc(Cl)cc1)c1cccc(N2C(=O)C3C4CCC(C4)C3C2=O)c1 (stereo not given)	0.46	1.36
CCn1c(SCC(=O)Nc2nccs2)nnc1C1CC1	1.63	-0.02
Cc1ccc(O)c(C(=O)CC(=O)c2ccc(C(C)(C)C)cc2)c1	0.52	-1.59
c1ccc(CSc2nc3ncncc3[nH]2)cc1	3.7	-1.63
CCNC(=O)COC(=O)C1C(C(=O)OCC)=C(C)NC(C)=C1C(=O)OCC	0.98	-0.81

# Retrieved one by one from the list above, 2 records:
SMILES	KCNQ2 pot	KCNQ2 pot baseline
CN(C)C(=O)c1nc2ccccc2s1	0.75	-0.41
CC1CCCN(c2ccc3nc4ccccc4c(=O)n3n2)C1 (stereo not given)	0.61	-3.27

# Next part
SMILES	KCNQ2 pot	KCNQ2 pot baseline
CC(/C=C1\SC(=S)N(NC(=O)c2ccc(C)cc2)C1=O)=C\c1ccccc1	9.22*	-1.29*
CC(C)(C)c1nnc(NC(=O)COc2ccc3c(c2)OCO3)s1	0.95	-0.55
CC(OC(=O)c1cccs1)C(=O)NC1CC1 (stereo not given)	1.59	-0.02
O=C(CSc1nnc(-c2ccncc2)n1Cc1ccccc1)NC1CCCCC1	0.18	-0.74
CCOCC(=O)Nc1nnc(COc2ccc(Cl)cc2)s1	0.97	-1.08
O=C1NC(=O)c2cc(NC(=O)c3cccc4ccccc34)ccc21	0.03	-0.65
COc1ccccc1C(=O)NCCC(=O)Nc1ncccc1C	1.84	0.52
COc1ccc(-c2cc(CNS(=O)(=O)c3ccccc3)on2)cc1	0.94	1.34
COc1ccccc1CC(=O)N1CCC(CCC(=O)NC2CC2)CC1	1.57	2.36
COc1cc2ccccc2cc1C(=O)Nc1ccncc1	0.28	0.12
O=C(NCc1ccccn1)c1cc(S(=O)(=O)N2CCCCCC2)ccc1Cl	0.16	1.19
O=C(CNC(=O)C1CCCCC1)OCC(=O)c1ccc(Br)cc1	0.13	-0.62
CCOC(=O)N1CCN(CC(O)COc2ccc(C)c(C)c2)CC1 (stereo not given)	0.26	-1.58
c1ccc2c(-c3cncc4ccccc34)cncc2c1	1.2	-3.24
COCCNC(=O)/C(C#N)=C/c1ccc(-c2ccc(S(=O)(=O)N3CCOCC3)cc2)o1	1.26	-0.11
O=C(NCC1CCN(Cc2ccccc2Cl)CC1)Nc1cccc(Cl)c1	1.08	0
CNc1ccccc1C(C)(C)c1cn(-c2ccc([N+](=O)[O-])cc2)nn1	0.99	-0.19
COc1cc(-c2nnn(CC(=O)N3CCOCC3)n2)cc(OC)c1OC	0.7	-1.03
Cc1cc(C)cc(-n2ncc3c2CCCC3NC(=O)CCN2CCCC2=O)c1 (stereo not given)	0.21	0.66
Cc1c[nH]c(=O)c([N+](=O)[O-])c1	1	2.38
CC(=O)c1cccc(OCc2cc(C(=O)N3CC4C[C@@H]5CC3C[C@H](C4)C5)no2)c1	0.6	1.21
COc1ccc(-c2cc(-c3ccco3)[nH]c(=O)c2C#N)cc1	0.25	-0.71
Cc1ccn2cc(-c3ccc4c(c3)NC(=O)CO4)nc2c1	0.33	3.46
Cc1cc(OCCN2CCCC2)cc(C(C)C)c1	0.19	-0.07
O=C(Cn1cnc([N+](=O)[O-])n1)c1ccccc1	0.88	0.96
CC(C)(C)c1ccc2c(c1)OC(C(=O)N/N=C\c1ccc(-c3cccc(C(=O)O)c3)o1)CO2 (stereo not given)	1.72	-2.23
CCCCNC(=O)c1onc(CSc2ccc(C)c(C)c2)c1C(=O)O	4.7	1.15
CCOC(=O)CC(NC(=O)c1cccc2c1C(=O)N(Cc1cccnc1)C2)c1ccc(OCC)c(OC)c1 (stereo not given)	0.05	0.15
CCc1ccc(-c2c(C)sc(NC(C)=O)c2C(N)=O)cc1	0.65	0.21
COc1cc(C(=O)Nc2cc(Cl)ccc2C)c(-n2cnnn2)cc1OC	0.78	2.24
COc1ccc(S(=O)(=O)N(CC(=O)N2CCN(c3ccccc3)CC2)c2ccccc2)cc1	1.28	-1.6
COc1ccc(/C=C/CN2CCN(Cc3ccc(F)cc3)C(CCO)C2)cc1 (stereo not given)	1.47	-3.84
NC(=O)CN1CCCN(S(=O)(=O)c2ccc(Br)cc2)CC1	0.49	1.75
O=C(O)C1CCCN(S(=O)(=O)c2cccc3cccnc23)C1 (stereo not given)	1.48	-0.03
O=C(Cn1cccn1)c1ccccc1	2.31	-0.89
CCN(/N=C/c1ccc(Cl)cc1)c1cc(=O)n(C)c(=O)[nH]1	1.99	0.56
CCSc1nnc(NC(=O)c2cc(C)on2)s1	1.43	-0.13
Cc1cccn2c(=O)c(C=O)c(N3CCN(c4ccccc4)CC3)nc12	0.69	0.8
COCCCNC(=O)/C(C#N)=C/c1ccc(OCC(=O)O)c(OC)c1	0.08	-0.11
CN1CCN(c2ccc([N+](=O)[O-])cc2C(=O)N2CCOCC2)CC1	1.15	-0.93
O=C(O)CNC(=S)N(Cc1ccccc1F)C1CCCCC1	1.59	-0.95
CCC(C)(C(=O)NC1CCCCC1)N(C(=O)CC1NC(=O)NC1=O)c1c(C)n(C)n(-c2ccccc2)c1=O (stereo not given)	0.02	-0.76
C#CCSc1nnc(-c2sc3ccccc3c2Cl)o1	1.35	0.55
Cc1ccccc1CN(c1ccc(C(=O)Nc2ccccc2C(=O)N2CCCC2)cc1)S(C)(=O)=O	0.67	-3.96
Cc1cc(S(=O)(=O)NC2CCCCC2)c(C)s1	2.25	2
O=C(CSc1ccccc1)Nc1ccccc1C(=O)O	1.02	-0.88
O=C(CCSc1nc(-c2ccco2)cc(C(F)(F)F)n1)NCc1ccccn1	1.17	0.08
COc1cc(/C=N\NC(=O)c2ccc(Cn3cc(Br)c([N+](=O)[O-])n3)o2)cc(OC)c1O	0.08	-0.76
CC(=O)Nc1ccc(NC(=O)c2cccc(-c3cc4ccccc4oc3=O)c2)cc1	1.5	0.42
Cc1ccc2cc(CN(CCCN3CCOCC3)C(c3nnnn3Cc3ccco3)C(C)C)c(=O)[nH]c2c1C (stereo not given)	0.03	1.3

# Further structures:
SMILES	KCNQ2 pot	KCNQ2 pot baseline
Cc1ccc(OCCCC(=O)N2CCN(S(=O)(=O)c3cccc(F)c3)CC2)cc1	0.88	-0.82
COc1cccc(OCc2cc(/C=N/NC(=O)c3nc(Cl)c(Cl)c(N)c3Cl)ccc2OC)c1	0.08	0.21
NC(=O)CC(NC(=O)Cc1ccc(Br)cc1)c1ccc(N2CCN(c3ccc(F)cc3)CC2)c([N+](=O)[O-])c1 (stereo not given)	0.72	3.01
CCCc1cc(=O)n2[nH]c(C)c(-c3ccc(Cl)cc3)c2n1	2.73	1.78
COc1cc(CNC(C)(C)CO)ccc1OCC(=O)NC(C)(C)C	0.44	0.93
c1ccc(Oc2nc(N3CCOCC3)nc(N3CCOCC3)n2)cc1	0.18	1.22
Nc1nc(SCC(=O)NCC2CCCO2)[nH]c(=O)c1NC(=O)c1ccco1 (stereo not given)	0.11	-0.2
CCNC(=S)Nc1cc(C)ccn1	2.58	-0.22
CC(C)(C)/C(O)=C/c1nc2ccccc2[nH]c1=O	0.29	-0.46
O=[N+]([O-])c1ccc(Nc2ccccn2)c([N+](=O)[O-])c1	0.16	0.59
N#Cc1cnc(N)c(Br)c1	1.33	-0.14
N#Cc1cc(-c2ccccc2)nnc1Oc1ccccc1Cl	0.02	0.51
C/C=C/C(=O)OCC(=O)Nc1ccc(C)c(S(=O)(=O)N(C)C)c1	0.04	-1.39
Nc1nc(NC(=O)CCCC(=O)O)nn1-c1ccccc1	0.77	0.11
CC(=O)c1cccc(NC(=O)c2csc(-n3nc(C)cc3C(F)(F)F)n2)c1	1.57	-0.04
O=C(COC(=O)c1ccc([N+](=O)[O-])o1)c1ccccc1	0.01	2.89
Cc1cccc(C)c1NC(=O)C1CCCN1S(=O)(=O)c1ccc(-c2ccc(=O)[nH]n2)s1 (stereo not given)	1.79	-0.67
Cc1ccc(Cn2c(SC3CCOC3=O)nc3ccccc3c2=O)cc1 (stereo not given)	1.15	1.86
COc1ccc(NC(=S)NCc2cccs2)c(OC)c1	0.08	0.96
CC(C)(C)c1ccc(/C=N/NC(=O)c2ccccn2)cc1	0.06	0.29
Cc1cnc(NC(=O)COc2cccc3c2OC(C)(C)C3)s1	1	0.84
Cc1ccc(S(=O)(=O)NCc2ccc(C(=O)NCc3cccnc3)cc2)cc1	0.47	1.59
